Screening results deposited in PubChem by several laboratories.
HSV replic up = enhancers of HSV replication in host cells, fold increase, host cell viability | HSV replication augmentation in cells | maximum fold increase | 220,000 compounds, 0.005% hits | AID 1956, 2009;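 active = peak rise of 1.5-fold or more in the series; tested in PC3 cells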;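 note: first round at 10 µM; read as green reporter fluorescence; hits show the peak of a series up to 25 µM; 1 = signal of infected wells without compound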
Insulin prom inh = inhibitors of insulin promoter-driven GFP, primary screen, imaging, TRM-6 cells (human fetal islet line), eGFP reporter, cell count; reporter expression induced with tamoxifen; 130,000 compounds, 0.9% hits; inhibition, % at 2 µM;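 active = inhibition above the mean plus 3 SD, with well images judged a real hit on visual review, cut at about 60% in these data, passing the limit was not always enough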
GALR2 ag = GALR2 receptor agonists, primary screen, cell-based | Galanin receptor type 2 (Homo sapiens), O43603 | GALR2-expressing cells, agonist activation read-out | activation, %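 (tested at 5 µM)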 | 140,000 compounds, 0.48% hits;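 active = above mean plus 3 SD of all compounds, about 5% in these data, not always enough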;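 note: 0% = vehicle buffer wells and 100% = reference agonist at full effect; tested in CHO reporter cells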
Target sequence (O43603 whole entry, looked up): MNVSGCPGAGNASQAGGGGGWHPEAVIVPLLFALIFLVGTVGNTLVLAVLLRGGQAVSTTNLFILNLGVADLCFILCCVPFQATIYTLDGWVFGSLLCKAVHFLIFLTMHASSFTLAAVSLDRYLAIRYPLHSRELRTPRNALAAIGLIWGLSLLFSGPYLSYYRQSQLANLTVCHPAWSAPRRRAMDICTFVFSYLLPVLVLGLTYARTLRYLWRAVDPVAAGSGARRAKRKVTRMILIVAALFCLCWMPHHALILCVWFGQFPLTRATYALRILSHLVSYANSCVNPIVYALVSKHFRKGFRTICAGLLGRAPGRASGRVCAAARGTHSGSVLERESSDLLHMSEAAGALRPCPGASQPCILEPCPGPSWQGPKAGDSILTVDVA
PKD1 inh = inhibitors of human PKD1 kinase, biochemical, fluorescence polarization; Serine/threonine-protein kinase D1 (Homo sapiens), Q15139; PKD1 kinase fluorescence polarization assay; inhibition, %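 (about 10 µM by stock and volumes)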; 200,000 compounds, 0.056% hits; AID 797, 2007;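 active = inhibition of 50% or more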;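 note: controls were vehicle for no effect and a reference inhibitor for full effect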
RGS16-Gao = modulators of RGS16 binding to Galphao, primary screen, biochemical, human proteins, multiplexed bead flow cytometry. Regulator of G-protein signaling 16 (Homo sapiens) + Guanine nucleotide-binding protein …. bead-based flow cytometry RGS16-Galphao binding, fluorescence; actives lie on both sides. binding response (% of control), % at 10 µM. 220,000 compounds, 0.38% hits. AID 1441, 2008;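 active = below 25% or above 175%, edge rows of some plates excepted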;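 note: Galphao activated by GDP with aluminum fluoride before binding; 100% = wells without compound and 0% = beads without RGS; some results beyond the cut were filed as inactive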
Target sequence (O15492 whole entry, looked up): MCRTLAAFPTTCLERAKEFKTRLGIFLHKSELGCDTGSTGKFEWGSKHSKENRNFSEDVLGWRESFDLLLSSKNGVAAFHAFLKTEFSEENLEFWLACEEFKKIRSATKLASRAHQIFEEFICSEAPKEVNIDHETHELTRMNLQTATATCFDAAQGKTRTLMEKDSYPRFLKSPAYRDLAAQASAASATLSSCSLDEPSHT
Target sequence (P09471 whole entry, looked up): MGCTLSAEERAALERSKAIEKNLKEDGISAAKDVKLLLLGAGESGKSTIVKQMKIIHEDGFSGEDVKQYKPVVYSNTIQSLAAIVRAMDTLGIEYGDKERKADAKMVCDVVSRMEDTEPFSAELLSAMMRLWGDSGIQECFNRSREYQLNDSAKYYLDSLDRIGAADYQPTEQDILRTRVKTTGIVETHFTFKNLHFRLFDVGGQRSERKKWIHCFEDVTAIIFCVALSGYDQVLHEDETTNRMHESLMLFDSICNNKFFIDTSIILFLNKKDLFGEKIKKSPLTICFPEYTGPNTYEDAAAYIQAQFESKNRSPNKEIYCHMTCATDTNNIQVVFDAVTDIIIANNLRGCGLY
Insulin prom inh cell count = further read-out of Insulin prom inh, marked with its call; normalized cell count, %; measured here: cell count, toxicity; reference of the scale not given here;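 cells exposed to compound for 48 h; stained nuclei by imaging scaled within each plate; lower means fewer cells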
HSV replic up primary fold = recorded beside HSV replic up, whose call it bears; fold increase; compound at 10 µM; measured here: primary screen fold increase 10 uM; tested in PC3 cells;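 GFP signal in the first replicate; 1 = infected wells without compound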
* = called active by the depositor. Hits appear at their usual frequency. About 1.3% of those tested had a hit in this group.

`O=C(Nc1ccc2nc(-c3cccs3)[nH]c2c1)c1ccco1` gave HSV replic up inactive, Insulin prom inh 40, GALR2 ag 0.5, PKD1 inh -6, RGS16-Gao 97, Insulin prom inh cell count 98 and HSV replic up primary fold 0.74.
For CCOC(=O)c1nn(-c2cccc(OC)c2)c2nc(CC)c(C#N)c(=O)n12 the results were HSV replic up inactive, Insulin prom inh 8, GALR2 ag -1.4, PKD1 inh 11, RGS16-Gao 58, Insulin prom inh cell count 103 and HSV replic up primary fold 0.89.
Screening CSc1ncc2c(n1)-c1cc(C)ccc1SC2 returned HSV replic up inactive, Insulin prom inh -17, GALR2 ag 0.2, PKD1 inh 1, RGS16-Gao 103, Insulin prom inh cell count 49 and HSV replic up primary fold 0.83.
Screening Cc1ccc(S(=O)(=O)C(C#N)c2nc3ccccc3nc2N2CCC(C)CC2)cc1 (configuration not stated) returned HSV replic up inactive, Insulin prom inh -7, GALR2 ag -2.1, PKD1 inh -11, RGS16-Gao 89, Insulin prom inh cell count 75 and HSV replic up primary fold 1.2.
`CC(=O)c1c(N2CCN(Cc3ccccc3)CC2)nc(=S)n(-c2ccccc2)c1C` gave HSV replic up inactive, Insulin prom inh -100, PKD1 inh -2, RGS16-Gao 154, Insulin prom inh cell count 58 and HSV replic up primary fold 1.2.
`c1ccc(Cn2c(CN3CCCC3)nc3ccccc32)cc1` gave HSV replic up inactive, Insulin prom inh 14, GALR2 ag -2.3, PKD1 inh -3, RGS16-Gao 110, Insulin prom inh cell count 119 and HSV replic up primary fold 0.9.
COc1ccc(/C=C(\C#N)C(=O)OCC(=O)NC2CC2)cc1 was read as HSV replic up inactive, PKD1 inh -10, RGS16-Gao 87 and HSV replic up primary fold 1.1.
Cc1cc(-n2c(SCCC#N)nnc2-c2cccnc2)ccc1Cl was read as HSV replic up inactive, Insulin prom inh 12, GALR2 ag -0.7, PKD1 inh -16, RGS16-Gao 97, Insulin prom inh cell count 72 and HSV replic up primary fold 0.96.
Screening Cc1nn2c(C(F)(F)F)c3c(nc2c1-c1ccccc1)CCC3 returned HSV replic up inactive, PKD1 inh 1, RGS16-Gao 105 and HSV replic up primary fold 1.
Screening O=C(NNS(=O)(=O)c1ccccc1[N+](=O)[O-])c1cccc(Cl)c1 returned HSV replic up inactive, Insulin prom inh 8, GALR2 ag 0.1, PKD1 inh -5, RGS16-Gao 108, Insulin prom inh cell count 80 and HSV replic up primary fold 0.91.
Screening C=CCn1c(SCc2cc(=O)n3ccsc3n2)nnc1C1CCCCC1 returned HSV replic up inactive, Insulin prom inh 55, GALR2 ag -1.9, PKD1 inh 4, RGS16-Gao 85, Insulin prom inh cell count 119 and HSV replic up primary fold 0.89.
CC1=C(C(=O)Nc2ccc(Cl)cc2)C2(CCCCC2)C(C(N)=O)C(=S)N1 (configuration not stated) was read as HSV replic up inactive, Insulin prom inh -87, GALR2 ag -1.1, PKD1 inh 15, RGS16-Gao 67, Insulin prom inh cell count 83 and HSV replic up primary fold 0.85.
Screening OC1=C(O)c2nc3ccccc3nc21 returned HSV replic up inactive, Insulin prom inh 19, GALR2 ag 0.3, PKD1 inh -7, RGS16-Gao 107, Insulin prom inh cell count 183 and HSV replic up primary fold 1.1.
Screening O=C1CN(c2nc(-c3ccccc3)c3cc(Cl)ccc3n2)c2ccccc2N1 returned HSV replic up inactive, GALR2 ag -0.4, PKD1 inh 1, RGS16-Gao 105 and HSV replic up primary fold 1.1.
For Cc1cc(=O)n(C)c(=O)n1CCCCCCOc1cccc([N+](=O)[O-])c1 the results were HSV replic up inactive, Insulin prom inh -21, GALR2 ag -0.6, PKD1 inh 5, RGS16-Gao 103, Insulin prom inh cell count 111 and HSV replic up primary fold 1.1.
`Cn1c(=O)oc2cc(S(=O)(=O)NCc3ccccc3)ccc21` gave HSV replic up inactive, Insulin prom inh -12, GALR2 ag -1.8, PKD1 inh -1, RGS16-Gao 105, Insulin prom inh cell count 96 and HSV replic up primary fold 0.97.
`O=C(O)CCCC(=O)Nc1nc(-c2ccc(F)cc2)cs1` gave HSV replic up inactive, Insulin prom inh 31, GALR2 ag -2.1, PKD1 inh -3, RGS16-Gao 101, Insulin prom inh cell count 133 and HSV replic up primary fold 0.99.
For CCc1nnc(NC(=O)C(C)Sc2ccccc2)s1 (configuration not stated) the results were HSV replic up inactive, GALR2 ag -0.9, PKD1 inh -9, RGS16-Gao 103 and HSV replic up primary fold 1.
For OCCC1CN(Cc2ccc(Oc3ncccn3)cc2)CCN1C1CCCC1 (configuration not stated) the results were HSV replic up inactive, PKD1 inh -10, RGS16-Gao 101 and HSV replic up primary fold 0.96.
For CSc1nnc2c(n1)OC=Nc1ccc(Br)cc1-2 the results were HSV replic up inactive, RGS16-Gao 96 and HSV replic up primary fold 0.8.

Looked up one by one from the entries so far (5):
CC1=C(C(=O)Nc2ccc(Cl)cc2)C2(CCCCC2)C(C(N)=O)C(=S)N1 (configuration not stated) was read as HSV replic up inactive, Insulin prom inh -87, GALR2 ag -1.1, PKD1 inh 15, RGS16-Gao 67, Insulin prom inh cell count 83 and HSV replic up primary fold 0.85.
For CCc1nnc(NC(=O)C(C)Sc2ccccc2)s1 (configuration not stated) the results were HSV replic up inactive, GALR2 ag -0.9, PKD1 inh -9, RGS16-Gao 103 and HSV replic up primary fold 1.
Screening OC1=C(O)c2nc3ccccc3nc21 returned HSV replic up inactive, Insulin prom inh 19, GALR2 ag 0.3, PKD1 inh -7, RGS16-Gao 107, Insulin prom inh cell count 183 and HSV replic up primary fold 1.1.
Screening C=CCn1c(SCc2cc(=O)n3ccsc3n2)nnc1C1CCCCC1 returned HSV replic up inactive, Insulin prom inh 55, GALR2 ag -1.9, PKD1 inh 4, RGS16-Gao 85, Insulin prom inh cell count 119 and HSV replic up primary fold 0.89.
For CSc1nnc2c(n1)OC=Nc1ccc(Br)cc1-2 the results were HSV replic up inactive, RGS16-Gao 96 and HSV replic up primary fold 0.8.

Further compounds follow.
Cc1ccc(NC(=O)n2ccc(-c3ccc(-n4ccnc4)cc3)n2)cc1 was read as HSV replic up inactive, Insulin prom inh 33, PKD1 inh 6, RGS16-Gao 99, Insulin prom inh cell count 103 and HSV replic up primary fold 0.98.
`CCOC(=O)c1csc(-c2snnc2C)n1` gave HSV replic up inactive, RGS16-Gao 105 and HSV replic up primary fold 1.1.
COC(=O)c1cccc(NC(=O)Cn2nnc3ccccc32)c1 was read as HSV replic up inactive, Insulin prom inh 55, GALR2 ag -0.7, PKD1 inh 5, RGS16-Gao 105, Insulin prom inh cell count 112 and HSV replic up primary fold 0.98.
For CN(C)S(=O)(=O)N1CCN(C(=O)N(c2ccccc2)c2ccccc2)CC1 the results were HSV replic up inactive, Insulin prom inh 66, GALR2 ag -2.2, PKD1 inh 0, RGS16-Gao 104, Insulin prom inh cell count 124 and HSV replic up primary fold 1.2.
For COc1ccc2c(c1)CCc1c(C(=O)N3CCCC3)noc1-2 the results were HSV replic up inactive, GALR2 ag -2.2, PKD1 inh 5, RGS16-Gao 98 and HSV replic up primary fold 1.1.
For CC(C)NC(=O)CCn1c(=S)oc2ccccc21 the results were Insulin prom inh 57, PKD1 inh -6, RGS16-Gao 122 and Insulin prom inh cell count 54.
`Cc1ccc(Oc2nsnc2N2CCOCC2)cc1` gave HSV replic up inactive, Insulin prom inh -21, GALR2 ag -1.8, PKD1 inh -17, RGS16-Gao 99, Insulin prom inh cell count 57 and HSV replic up primary fold 0.86.
Screening COCc1c(C(N)=O)nnn1-c1nonc1N returned HSV replic up inactive, GALR2 ag -1.9, PKD1 inh -6, RGS16-Gao 103 and HSV replic up primary fold 1.1.
`O=C(Cc1ccc(Cl)cc1)Nc1ccccc1Sc1ccccc1` gave HSV replic up inactive, Insulin prom inh -21, GALR2 ag -0.1, PKD1 inh -2, RGS16-Gao 106, Insulin prom inh cell count 147 and HSV replic up primary fold 1.1.
CCn1c(SCC(=O)Nc2ccccc2-c2ccccc2)nnc1-c1ccoc1C was read as HSV replic up inactive, Insulin prom inh -70, GALR2 ag -0.1, PKD1 inh 6, RGS16-Gao 82, Insulin prom inh cell count 56 and HSV replic up primary fold 0.6.
Screening O=C(Nc1ncnc2sc3c(c12)CCCCC3)c1ccc(F)cc1 returned HSV replic up inactive, Insulin prom inh 42, GALR2 ag 0.6, PKD1 inh 31, RGS16-Gao 95, Insulin prom inh cell count 103 and HSV replic up primary fold 0.95.
`O=C(NCC1CCCO1)C(c1ccncc1)N(Cc1cccs1)C(=O)CN1C(=O)c2ccccc2S1(=O)=O` (configuration not stated) gave HSV replic up inactive, Insulin prom inh 0, PKD1 inh -4, RGS16-Gao 106, Insulin prom inh cell count 118 and HSV replic up primary fold 0.94.
`C/C(=N\NC(=O)CCn1nnc2ccccc21)c1ccco1` gave HSV replic up inactive, RGS16-Gao 99 and HSV replic up primary fold 1.2.
For CCNC(=O)COC(=O)c1ccc(S(=O)(=O)N2CCCCCC2)cc1 the results were HSV replic up inactive, GALR2 ag -1.6, PKD1 inh -10, RGS16-Gao 102 and HSV replic up primary fold 1.1.
`Cc1cc(C)n(-c2nc3ccccc3c(=O)n2OCCOc2ccccc2)n1` gave HSV replic up inactive, Insulin prom inh -11, GALR2 ag -0.7, PKD1 inh -6, RGS16-Gao 105, Insulin prom inh cell count 106 and HSV replic up primary fold 0.88.
`Cc1ccccc1C(=O)NC1CC2CCC(C1)N2Cc1ccccc1` (configuration not stated) gave HSV replic up inactive, Insulin prom inh -22, PKD1 inh -8, RGS16-Gao 99, Insulin prom inh cell count 110 and HSV replic up primary fold 1.1.
COc1cc(CNC(=O)OCC(C)C)cc(OC)c1OC was read as HSV replic up inactive, GALR2 ag -1.7, PKD1 inh -5, RGS16-Gao 107 and HSV replic up primary fold 0.91.
c1coc(CNCCCN2CCOCC2)c1 was read as HSV replic up inactive, Insulin prom inh -22, GALR2 ag -2.5, PKD1 inh -4, RGS16-Gao 97, Insulin prom inh cell count 78 and HSV replic up primary fold 0.91.
`CS(=O)(=O)N1CCCC(C(=O)NCCc2ccccc2)C1` (configuration not stated) gave HSV replic up inactive, Insulin prom inh 35, GALR2 ag -1.1, PKD1 inh -1, RGS16-Gao 98, Insulin prom inh cell count 136 and HSV replic up primary fold 0.78.
`O=C1N/C(=C/c2cccn2-c2ccccc2)C(=O)N1c1cccc(Cl)c1` gave HSV replic up inactive, GALR2 ag 7.0*, PKD1 inh 6, RGS16-Gao 74 and HSV replic up primary fold 0.77.
`Cc1cc(NC(=O)CCC(=O)N(Cc2cccs2)C(C(=O)NC2CCCC2)c2cccnc2)no1` (configuration not stated) gave HSV replic up inactive, Insulin prom inh 3, GALR2 ag -1.4, PKD1 inh 4, RGS16-Gao 102, Insulin prom inh cell count 71 and HSV replic up primary fold 0.89.
For CCOc1ccc(S(=O)(=O)Nc2cccc(Cl)c2)cc1 the results were HSV replic up inactive, Insulin prom inh -35, GALR2 ag -0.6, PKD1 inh -3, Insulin prom inh cell count 170 and HSV replic up primary fold 1.
For Cc1ccccc1Cn1c(=O)[nH]c2ccccc21 the results were HSV replic up inactive, RGS16-Gao 100 and HSV replic up primary fold 0.91.
`CN(Cc1ccccc1)c1ncc(C=O)s1` gave HSV replic up inactive, PKD1 inh 0, RGS16-Gao 104 and HSV replic up primary fold 1.
For Cc1c(C(=O)O)[nH]c2ccc([N+](=O)[O-])cc12 the results were HSV replic up inactive, PKD1 inh -2, RGS16-Gao 100 and HSV replic up primary fold 0.98.
For CCCCCCn1c(CN2CCCCC2C)nc2c1c(=O)n(C)c(=O)n2C (configuration not stated) the results were HSV replic up inactive, Insulin prom inh -69, GALR2 ag 0.1, PKD1 inh 0, RGS16-Gao 60, Insulin prom inh cell count 109 and HSV replic up primary fold 0.89.
For CCCCOC(=O)CCc1c(C)[nH]c(=O)c(C#N)c1C the results were HSV replic up inactive, Insulin prom inh 9, GALR2 ag -1.5, PKD1 inh 2, RGS16-Gao 102, Insulin prom inh cell count 141 and HSV replic up primary fold 1.
For CC(C)c1cccc(O)c(=O)c1 the results were HSV replic up inactive, PKD1 inh 2, RGS16-Gao 101 and HSV replic up primary fold 0.91.
For Nc1ncnc(Oc2cccc(C(F)(F)F)c2)c1[N+](=O)[O-] the results were HSV replic up inactive, Insulin prom inh -19, PKD1 inh -3, RGS16-Gao 103, Insulin prom inh cell count 158 and HSV replic up primary fold 0.84.
c1ccc(-c2nn3c(Cn4cnc5ccccc54)nnc3s2)cc1 was read as HSV replic up inactive, Insulin prom inh -40, GALR2 ag -1.4, PKD1 inh -4, RGS16-Gao 88, Insulin prom inh cell count 101 and HSV replic up primary fold 0.9.
